Compound activity: PubChem, several laboratories
Mtb growth = M. tuberculosis H37Rv growth inhibitors, H37Rv strain (AID 1626) | M. tuberculosis H37Rv growth inhibition; higher % means a stronger effect | inhibition, % at 10 µM; hits with a dose series show IC50 in µM | actives 0.95% (n = 220,000);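 active = confirmed in a dose series; inconclusive = inhibition above 80% but not taken into the dose series; inactive = below 80% or under 30% at every dose of the series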;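 note: bacteria incubated seven days before Alamar blue readout; 0% = bacteria only wells and 100% = bacteria with antibiotic wells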
YopH PTP inh = inhibitors of Yersinia enterocolitica YopH tyrosine phosphatase | fluorescence Ex485/Em525 | inhibition, %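 (about 10 µM by stock and volumes)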 | actives 0.16% (n = 140,000) | AID 898;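 active = inhibition of 50% or more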;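 note: controls were vehicle for no effect and minimum signal wells for full effect; inactives centre near -20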
RecA splice inh = Mtb RecA intein splicing inhibition; P9WHJ3; cell-free RecA intein splicing, fluorescence; inhibition, %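 (about 9 µM by stock and volumes)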; actives 0.75% (n = 290,000); AID 2221; in the data active = inhibition above about 30%; inconclusive = no clear call, values can overlap the other calls;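 note: 0% = vehicle wells and 100% = reference inhibitor control wells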
Target sequence (P9WHJ3 whole entry, looked up, canonical isoform): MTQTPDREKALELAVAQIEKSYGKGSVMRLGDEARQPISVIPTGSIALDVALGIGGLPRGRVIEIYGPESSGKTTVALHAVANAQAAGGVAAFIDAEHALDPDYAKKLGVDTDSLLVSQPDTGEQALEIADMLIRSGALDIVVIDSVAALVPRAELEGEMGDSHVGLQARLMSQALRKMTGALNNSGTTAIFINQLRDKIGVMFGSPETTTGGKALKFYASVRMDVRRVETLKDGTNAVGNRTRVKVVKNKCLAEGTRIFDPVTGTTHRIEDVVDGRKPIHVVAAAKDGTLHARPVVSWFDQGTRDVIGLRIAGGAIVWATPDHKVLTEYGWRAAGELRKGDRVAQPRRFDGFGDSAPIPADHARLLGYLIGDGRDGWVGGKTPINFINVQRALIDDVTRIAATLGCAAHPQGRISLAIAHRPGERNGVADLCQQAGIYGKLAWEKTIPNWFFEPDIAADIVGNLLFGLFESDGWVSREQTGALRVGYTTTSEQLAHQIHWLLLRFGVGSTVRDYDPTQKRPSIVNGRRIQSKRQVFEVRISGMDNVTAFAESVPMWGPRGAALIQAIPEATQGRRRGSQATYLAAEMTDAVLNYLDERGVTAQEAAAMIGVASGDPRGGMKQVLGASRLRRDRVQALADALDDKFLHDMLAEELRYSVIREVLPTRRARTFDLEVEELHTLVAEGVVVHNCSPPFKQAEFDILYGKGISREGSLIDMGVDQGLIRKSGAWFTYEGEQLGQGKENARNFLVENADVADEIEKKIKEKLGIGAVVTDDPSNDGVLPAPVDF
Arbovirus anti = antivirals against arbovirus infection; actives 0.37% (n = 200,000); inhibition, % at 10 µM; AID 1251; arbovirus infection cell-based antiviral screen;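 active = inhibition from about 30%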;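 note: bluetongue infection of BSR cells; cell survival read as ATP light after 72 h; 0% = infected wells without compound and 100% = uninfected wells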
Mtb betalactam = beta-lactam sensitization of Mtb H37Rv | M. tuberculosis H37Rv growth with meropenem, percent inhibition; hits of this screen are not shown here | inhibition, % at 25 µM | actives 0.27% (n = 330,000);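 active = about 74% or more and at least 40 points above the plate without the antibiotic, then above 30% in a dose series; inconclusive = first-round hits that could not be retested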;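 note: growth measured after seven days incubation then overnight dye step; 0% = bacteria only wells and 100% = bacteria with antibiotic; twin plates without the antibiotic show which effects depend on it; some results filed as inactive read as strong as hits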
Arbovirus anti repeat = second read-out of Arbovirus anti, no call of its own (marks repeat the call); inhibition, %; measured here: 10K subset replicate screen; many hits read low in the repeat;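 first of two repeat runs on a subset; 0% = infected and 100% = uninfected wells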
An asterisk follows results filed as active; i = inactive; ? = inconclusive; · = not tested or not shown. A portion of the library. The share of hits here may be higher or lower than overall.

SMILES	Mtb growth	YopH PTP inh	RecA splice inh	Arbovirus anti	Mtb betalactam	others
CCOc1ccc(N2C(=O)CC(Cc3ccc(Br)cc3)C2=O)cc1 (centres undefined)	·	·	3.0	·	28.4
CCc1ccccc1-n1cnc2cc(C(=O)O)ccc21	-9.2%	-13.9	0.5	0.6	0.6
C=C1c2cc(CC)ccc2NC(=O)N1c1ccc(C)cc1	-3.9%	-46.0	·	3.5	-6.0	Arbovirus anti repeat=-2.7
CN(CC(=O)NC(c1ccccc1)c1ccccc1)Cc1nc2ccccc2c(=O)[nH]1	-10.3%	-12.9	3.6	4.0	7.1
CCOC(=O)CN(c1ccccn1)S(=O)(=O)c1ccc(OC)cc1	-7.0%	·	0.1	3.2	-9.9
COc1ccc(-c2cc(C(=O)N3CCN(S(=O)(=O)c4ccccc4)CC3)[nH]n2)cc1	·	·	3.7	·	?
CC(C)c1nnc(NC(=O)CCC(=O)NCc2cccs2)s1	-8.5%	-12.7	1.3	-0.1	5.9
CCC(C)NS(=O)(=O)c1ccc(S(=O)(=O)N(CC(=O)Nc2ccccc2)Cc2ccco2)cc1 (centres undefined)	-0.4%	10.2	3.7	-3.1	-7.3
CCOc1ccc(N2CC(NC(=O)c3cccc4ccccc34)CC2=O)cc1 (centres undefined)	·	·	-1.2	·	3.7
Cc1cccc(OCCCCCn2ccnc2)c1C	10.6µM*	-49.2	2.7	-14.0	99.5
CN=C1c2cc3cc(OC)ccc3n2CCN1Cc1ccccc1	·	-19.4	1.5	-16.2	·
CC(C)C(=O)Nc1ccc(C(=O)Nc2nnc(C(C)(C)C)s2)cc1	19.8%	·	-3.2	-7.6	10.7
FC(F)(F)c1cccc(CNc2ncccc2-c2nc3cc(Cl)ccc3o2)c1	1.3%	-26.8	-2.6	5.0	9.9
NS(=O)(=O)c1ccc(NC(=S)NC(=O)/C=C/c2ccco2)cc1	4.1%	-17.9	0.3	-7.3	4.3
Cc1ccccc1CN1[C@@H]2c3ccccc3C[C@@H]2OCCS1(=O)=O	·	·	4.4	·	-2.3
CS(=O)(=O)N(CC(=O)NCc1ccncc1)c1ccc(Cl)c(Cl)c1	-0.6%	14.0	-1.3	1.1	3.3
CCc1ccc(NC(=O)CN2CCC(C(=O)c3ccc(OC)cc3)CC2)cc1	·	·	4.6	·	97.5
NS(=O)(=O)c1cccc(NC(=O)Cn2cc(C(F)(F)F)cc(Cl)c2=O)c1	-6.1%	·	-0.5	·	-6.8
CSc1cccc(NC(=S)NC(=O)c2cccnc2)c1	·	·	1.3	·	-2.6
COC(=O)CSc1nnc(CNC(=O)c2ccc(S(=O)(=O)N3CCOCC3)cc2)n1C	6.1%	·	-0.8	0.8	6.2
COC(=O)c1[nH]c2cc(C)ccc2c1NC(=O)CN1CCCc2ccccc21	6.7%	-37.9	-3.3	-11.6	5.2
COc1ccccc1Nc1nnc(SCC(=O)N2CCCC2)s1	-3.7%	-12.6	-1.1	5.9	-8.3
COC(=O)C1=C(C)Nc2nnnn2C1c1cccs1 (centres undefined)	-13.8%	-8.2	·	0.3	-7.1
COc1ccc(NC(=O)CSc2nc3[nH]ncc3c(=O)[nH]2)c(OC)c1	·	·	-3.3	·	5.9
Cc1ccc(C(C)C)c(OCC(=O)NNC2=CC(=O)CC(C)(C)C2)c1	-9.1%	·	3.3	·	1.7
Additional records.
SMILES	Mtb growth	YopH PTP inh	RecA splice inh	Arbovirus anti	Mtb betalactam	others
COc1ccc(C)cc1S(=O)(=O)N1CCC(C(=O)NCCc2ccccc2)CC1	0.0%	-27.0	-1.8	-5.4	-5.5
Cc1cccc(-n2ccnc2CN2CCN(C3CCCC3)C(CCO)C2)c1 (centres undefined)	6.5%	·	-1.1	0.2	-3.1
O=C(c1cccnc1)N1CCN(c2ccc([N+](=O)[O-])cc2Cl)CC1	3.5%	3.1	-2.8	-7.5	-2.4
CCc1nc2c(oc3ccccc32)c(=O)[nH]1	-1.0%	-37.3	-4.4	-2.7	-0.9
Cc1ccc(-c2nc3ccccc3c(=O)n2NC(=O)COc2ccccc2)cc1	5.9%	-22.1	-2.9	-0.3	1.9
CCCC1Cc2c(sc(N)c2C#N)CO1 (centres undefined)	0.2%	·	-0.3	-0.5	-4.0
CC(=O)C1=C(O)C(=O)N(c2ccc(S(N)(=O)=O)cc2)C1c1cccc([N+](=O)[O-])c1 (centres undefined)	-2.5%	·	-0.5	·	1.1
Cn1nc(C(=O)NC2CCCN(Cc3ccccc3F)C2)c2ccccc2c1=O (centres undefined)	·	·	-15.0	·	1.8
CC[n+]1ccc(/C=C/c2c[nH]c3ccccc23)cc1	·	·	-2.0	·	-6.4
O=C(c1c(Cl)cccc1Cl)N1CCCCCC1	4.0%	-39.1	-1.8	4.1	-7.2
CC1(C)CC(=O)C=C(NC2CCCCCC2)C1	2.4%	-35.0	2.4	0.2	-5.5
COc1ccc(-c2nc(N)n(C(=O)Cc3ccccc3)n2)cc1	6.3%	4.7	·	-3.5	-0.4
O=C(CSc1ncccn1)N1CCCC1	·	·	3.8	·	-7.5
COc1ccc(C2C=C(C)Nc3nc4ccccc4n32)cc1 (centres undefined)	-3.1%	·	-85.6	-1.1	-2.4
Cc1ccc(NCC(=O)N/N=C/c2cc3ccccc3nc2Cl)cc1	·	-27.7	5.8	4.6	39.2
O=C(/C=C/c1cccc([N+](=O)[O-])c1)NCc1ccco1	0.8%	-31.8	-1.0	-6.3	5.3
N#Cc1ccsc1NC(=O)C1CCN(C(=O)c2ccc(Cl)cc2)CC1	·	·	1.1	·	-1.9
CCN1C(=O)[C@H]2[C@@H](c3ccccc3)N3C(=O)N(c4cccc(F)c4)C(=O)[C@@]3(CC(C)C)[C@H]2C1=O	·	·	-1.7	·	-11.5
CN(C(=O)c1ccco1)c1nnc(C23CC4CC(CC(C4)C2)C3)s1	14.6%	-25.2	5.4	-9.6	-3.3	Arbovirus anti repeat=0.5
CC(=O)N/N=C/c1cc(C(C)(C)C)cc(/C=N/NC(C)=O)c1O	-2.8%	·	i	-28.9	54.5
CC(OC(=O)CCCN=C1NS(=O)(=O)c2ccccc21)C(=O)Nc1ccccc1[N+](=O)[O-] (centres undefined)	·	·	-2.9	·	-3.1
COc1ccc(C(=O)Nc2cccc3c2CCCC3)cc1OC	·	·	-3.1	·	-7.2
CCc1cc2cc(C)ccc2nc1SCC(=O)NNC(=O)c1ccco1	·	·	0.1	·	-5.3
COc1cc2c(cc1OC)CC(C(=O)NCc1ccccc1)NC2 (centres undefined)	·	·	-0.2	·	-12.7
O=C(CC1SC(=O)N(Cc2ccccc2Cl)C1=O)Nc1nccs1 (centres undefined)	·	·	-1.0	·	3.2
Further entries
SMILES	Mtb growth	YopH PTP inh	RecA splice inh	Arbovirus anti	Mtb betalactam	others
Cc1ccc(CN2C(=O)CCC2C(=O)NCC2CCCO2)cc1 (centres undefined)	-2.6%	-9.2	-2.6	3.7	-7.9
COc1ccccc1N1CCN(C(=O)CCn2c(=O)[nH]c3ccsc3c2=O)CC1	-8.7%	-67.3	-2.3	-3.2	0.6
COc1ccccc1N1CCN(C(=O)/C=C/c2c(Cl)nc3ccccn23)CC1	-0.4%	·	-0.4	1.1	4.8
COCCCN1C(=O)c2ccc(C(=O)NCc3ccccn3)cc2C1=O	·	·	-4.1	·	-4.1
O=C(COc1coc(CN2CCc3ccccc3C2)cc1=O)Nc1ccc(F)cc1F	·	·	-0.2	·	1.2
Cc1cc(C)n(CC(=O)c2ccc(Br)cc2)c(=O)c1C#N	-1.1%	-27.3	2.8	10.8	-2.4
Cn1c(SCc2ccc(C#N)cc2)nnc1-c1ccccc1	3.9%	-38.9	-3.1	1.6	-4.2
Cc1cc(C)n(-c2nnc(C)n2NS(C)(=O)=O)n1	-1.0%	-8.8	7.7	3.0	0.8
CC(C(=O)Nc1ccc(Br)cc1C(=O)c1ccccc1)N1CCCCC1 (centres undefined)	-0.7%	-27.1	5.4	-1.8	17.9
C/C(=N/NS(=O)(=O)c1ccc(C)cc1)c1c[nH]c2ccccc12	·	·	-2.5	·	1.9
COc1cccc(CNc2cccc3cccnc23)c1O	6.5%	36.4	3.2	-20.1	48.3
Cc1nnc(SCc2nc(N)nc(Nc3ccccc3)n2)s1	-4.5%	-13.9	0.5	-5.5	-19.5
COc1ccc(C(C)=O)cc1CSc1nnc(-c2ccc(Cl)cc2)n1-c1ccccc1	-6.4%	-30.4	1.1	-21.2	-8.3
Cc1ccc(/C(N)=N/OC(=O)c2cccc(Cn3cc(C(F)(F)F)ccc3=O)c2)cc1	19.9%	·	-21.8	·	27.9
CCC(Sc1nc2ccsc2c(=O)n1-c1ccc(Cl)c(C)c1)C(=O)NCc1ccco1 (centres undefined)	5.9%	-4.7	9.3	13.4	5.4
O=C(CCN1C(=O)c2ccccc2C1=O)C1=NN[C@@H]2C(=O)N(c3cccc(F)c3)C(=O)[C@H]12	-3.0%	-12.8	-2.5	4.1	-7.5
COc1cccc(CNC(=O)C(C)n2nc(C)n3c(cc4occc43)c2=O)c1 (centres undefined)	·	·	3.0	·	6.0
Cc1ccc(CCNC(=O)C23CN(Cc4ccccc4)CC2C(c2ccc([N+](=O)[O-])cc2)=NO3)cc1 (centres undefined)	-7.7%	-40.8	3.3	4.1	-14.8
CCCC(=O)Nc1ccc2c(c1)nc1n2CCN(CCOC)C1	·	·	-5.4	·	-3.6
CC(=O)Nc1ccc(S(=O)(=O)NCc2csc(C)n2)cc1	-1.1%	-19.6	-2.8	6.3	2.7
CC(C)CNS(=O)(=O)c1ccc(OCC(=O)Nc2ccc(F)cc2F)cc1	3.0%	-31.5	-0.7	3.7	2.5
CC(C)N(C(=O)CN1CCC(c2nc3ccccc3[nH]2)CC1)C(C)C	·	·	-0.1	·	5.6
CCOC(OCC)P(=O)(C(C)C)C(C)C	-3.8%	1.0	-1.2	4.3	4.3
COc1ccc(N2C(=O)C(Cl)=C(N3CCOCC3)C2=O)cc1	·	·	74.2*	·	9.1
COC(=O)C1CCN(C(=O)CN(C)Cc2ccc(C(C)(C)C)cc2)CC1	·	·	-1.6	·	1.8
COc1ccc(-c2[nH]ncc2/C=N/NC(=O)c2cccc([N+](=O)[O-])c2)cc1OC	-0.8%	·	-2.2	-7.8	16.8
CCOC(=O)c1cc(COc2cc(Cl)cc(Cl)c2)on1	3.01µM*	·	0.6	·	99.7
CC1CCN(C(=O)CSc2nnc(-c3ccncc3)n2C)CC1	-10.6%	-29.5	-0.9	3.6	0.0
CN(Cc1ccc(Cl)cc1Cl)C(=O)CN1C(=O)NC2(CCCC2)C1=O	·	·	-5.9	·	-15.8
C/C(N)=C(/C#N)C(=O)CSc1nnc(Cc2ccccc2F)n1N	-12.4%	-12.7	3.9	6.7	-0.3

Taken from the results shown (15 entries):
SMILES	Mtb growth	YopH PTP inh	RecA splice inh	Arbovirus anti	Mtb betalactam	others
O=C(CCN1C(=O)c2ccccc2C1=O)C1=NN[C@@H]2C(=O)N(c3cccc(F)c3)C(=O)[C@H]12	-3.0%	-12.8	-2.5	4.1	-7.5
COc1cccc(CNC(=O)C(C)n2nc(C)n3c(cc4occc43)c2=O)c1 (centres undefined)	·	·	3.0	·	6.0
Cc1ccc(CCNC(=O)C23CN(Cc4ccccc4)CC2C(c2ccc([N+](=O)[O-])cc2)=NO3)cc1 (centres undefined)	-7.7%	-40.8	3.3	4.1	-14.8
CCCC(=O)Nc1ccc2c(c1)nc1n2CCN(CCOC)C1	·	·	-5.4	·	-3.6
CC(=O)Nc1ccc(S(=O)(=O)NCc2csc(C)n2)cc1	-1.1%	-19.6	-2.8	6.3	2.7
CC(C)CNS(=O)(=O)c1ccc(OCC(=O)Nc2ccc(F)cc2F)cc1	3.0%	-31.5	-0.7	3.7	2.5
CC(C)N(C(=O)CN1CCC(c2nc3ccccc3[nH]2)CC1)C(C)C	·	·	-0.1	·	5.6
CCOC(OCC)P(=O)(C(C)C)C(C)C	-3.8%	1.0	-1.2	4.3	4.3
COc1ccc(N2C(=O)C(Cl)=C(N3CCOCC3)C2=O)cc1	·	·	74.2*	·	9.1
COC(=O)C1CCN(C(=O)CN(C)Cc2ccc(C(C)(C)C)cc2)CC1	·	·	-1.6	·	1.8
COc1ccc(-c2[nH]ncc2/C=N/NC(=O)c2cccc([N+](=O)[O-])c2)cc1OC	-0.8%	·	-2.2	-7.8	16.8
CCOC(=O)c1cc(COc2cc(Cl)cc(Cl)c2)on1	3.01µM*	·	0.6	·	99.7
CC1CCN(C(=O)CSc2nnc(-c3ccncc3)n2C)CC1	-10.6%	-29.5	-0.9	3.6	0.0
CN(Cc1ccc(Cl)cc1Cl)C(=O)CN1C(=O)NC2(CCCC2)C1=O	·	·	-5.9	·	-15.8
C/C(N)=C(/C#N)C(=O)CSc1nnc(Cc2ccccc2F)n1N	-12.4%	-12.7	3.9	6.7	-0.3
